GIV-Gai inh – blocks GIV peptide binding to rat Galpha-i3 | P08753 | Galpha-i3/FITC-GIV peptide fluorescence polarization, 90 min; active compounds read low; scaled: aluminum fluoride 0%, vehicle 100% | percent of control (FP), % (test concentration not listed) | 210,000 compounds, 0.42% hits | AID 1224905;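 active means replicate mean at 85% of control or lower, very high polarization wells dropped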;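 further: lower values mean more displacement of the GIV peptide from Galpha-i3; wells of about 15 µL received 100 nL stock; the first replicate is given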
Target sequence (P08753 whole entry, looked up): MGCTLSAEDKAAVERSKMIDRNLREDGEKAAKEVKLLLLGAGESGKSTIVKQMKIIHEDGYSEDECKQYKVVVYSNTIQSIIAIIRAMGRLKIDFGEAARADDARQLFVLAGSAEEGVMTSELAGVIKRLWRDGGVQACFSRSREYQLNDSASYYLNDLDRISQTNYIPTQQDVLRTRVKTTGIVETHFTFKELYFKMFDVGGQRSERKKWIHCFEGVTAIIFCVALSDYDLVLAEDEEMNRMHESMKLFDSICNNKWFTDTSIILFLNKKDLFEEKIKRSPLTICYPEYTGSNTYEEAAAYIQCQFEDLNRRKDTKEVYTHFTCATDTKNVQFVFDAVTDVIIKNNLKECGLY
Sa growth 42C – S. aureus growth inhibition; relative growth, % (test concentration not listed); S. aureus RN4220 growth, OD600, 20 h, 42 °C; active compounds read low; 170,000 compounds, 0.53% hits; AID 720641;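 active means growth at 42 °C up to 50% and 20 or more points under that at 30 °C, or under 10% at both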;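 further: 300 nL library stock went into each well; scaled to the means of positive and negative controls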
HCMV UL50-53 inh – disrupts HCMV UL50-UL53 complex binding. 190,000 compounds, 0.15% hits. HTRF UL50-UL53 interaction, normalized percent inhibition. AID 1918969. inhibition, % (test concentration not listed);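 active means both replicates at 50% or more, plus weaker picks with an unusually low signal ratio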;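 further: stock transfer was 100 nL into about 20 µL; 0% = negative control wells and 100% = wells with untagged competitor protein; inactives centre near -12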
Sa growth 42C second temp – also measured in Sa growth 42C; calls as there; relative growth, %; measured here: growth at 30 °C;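 optical density after 20 h as mean of two plates; 100% = untreated growth and lower means inhibition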
Numbers without * were called inactive; & = joins results of further samples.

Cc1cc(-n2nc(C)cc2C)n2nc(-c3ccc(Cl)cc3)c(C)c2n1 was read as GIV-Gai inh 107 and HCMV UL50-53 inh -26.
`O=C(c1ccco1)N(c1ccccc1)c1ccccc1` gave GIV-Gai inh 96, Sa growth 42C 89, HCMV UL50-53 inh -3 and Sa growth 42C second temp 94.
Screening CC(Oc1ccc(F)cc1)C(=O)NCCN1CCOCC1 (stereo unspecified) returned GIV-Gai inh 104, Sa growth 42C 107, HCMV UL50-53 inh -16 and Sa growth 42C second temp 79.
For COc1cc(OC)cc(C(=O)Nc2ccc(CN3CCCCC3)cc2)c1 the results were GIV-Gai inh 105, Sa growth 42C 101, HCMV UL50-53 inh -6 and Sa growth 42C second temp 98.
`CCc1cc2c(cc3c(=O)n(CCCC(=O)N4CCC(C)CC4)nc(CC)n32)s1` gave GIV-Gai inh 95 and HCMV UL50-53 inh -19.
O=C(Nc1ccc(F)c(F)c1)C1CCCN1S(=O)(=O)c1cccc2nsnc12 (stereo unspecified) was read as GIV-Gai inh 102, Sa growth 42C 104, HCMV UL50-53 inh -114 and Sa growth 42C second temp 84.
`COc1ccccc1NC(=O)C1=C(C)Nc2nc(SCc3ccccc3)nn2C1c1cccs1` (stereo unspecified) gave GIV-Gai inh 106, Sa growth 42C 95, HCMV UL50-53 inh 15 and Sa growth 42C second temp 108.
`O=C(O)c1c(Cl)c(Cl)c(Cl)c(Cl)c1C(=O)N1CCCC1` gave GIV-Gai inh 94, Sa growth 42C 85, HCMV UL50-53 inh 0 and Sa growth 42C second temp 114.
CCN1C/C(=C\c2ccc(OC)cc2)C(=O)/C(=C/c2ccc(OC)cc2)C1 was read as GIV-Gai inh 103, Sa growth 42C 79, HCMV UL50-53 inh -14 and Sa growth 42C second temp 66.
COc1cccc(NC(=O)C(Sc2nnc(-c3ccccc3)o2)c2ccccc2)c1 (stereo unspecified) was read as Sa growth 42C 87, HCMV UL50-53 inh -4 and Sa growth 42C second temp 91.
Screening CCSc1ncc(Cl)c(C(=O)Nc2c(C(=O)Nc3ccc(Cl)cc3)oc3ccccc23)n1 returned GIV-Gai inh 105, Sa growth 42C 99, HCMV UL50-53 inh 8 and Sa growth 42C second temp 87.
`Cc1c(N(C(=O)c2ccccn2)C2(C(=O)NC3CCCC3)CCCCC2)c(=O)n(-c2ccccc2)n1C` gave GIV-Gai inh 97 and HCMV UL50-53 inh -4.
`O=C(Nc1cc(Oc2ccc(F)cc2)cc([N+](=O)[O-])c1)c1sc2ccccc2c1Cl` gave GIV-Gai inh 102 and HCMV UL50-53 inh -6.
Screening CC(=O)NC(=S)N[C@@H]1O[C@H](COC(C)=O)[C@@H](OC(C)=O)[C@H](OC(C)=O)[C@H]1OC(C)=O returned GIV-Gai inh 107, Sa growth 42C 94, HCMV UL50-53 inh -22 and Sa growth 42C second temp 87.
Screening CCOC(=O)C1CCN(S(=O)(=O)c2c(C)n(C)c(=O)n(C)c2=O)CC1 returned GIV-Gai inh 112, Sa growth 42C 104 and Sa growth 42C second temp 95.
Screening Cc1ccc(Cn2c(C)cc(C)c(C#N)c2=O)cc1 returned GIV-Gai inh 101, Sa growth 42C 88, HCMV UL50-53 inh -36 and Sa growth 42C second temp 88.
COc1ccc(NC(=O)c2ccc3snnc3c2)cc1 was read as GIV-Gai inh 106, Sa growth 42C 106, HCMV UL50-53 inh -5 and Sa growth 42C second temp 92.
`CCc1ccc(NC(=O)CCC(=O)c2ccccc2)cc1` gave Sa growth 42C 129, HCMV UL50-53 inh -22 and Sa growth 42C second temp 83.
For CCOc1ccc2c(c1)c1nnc(SCC3CCCO3)nc1n2C (stereo unspecified) the results were GIV-Gai inh 101, Sa growth 42C 103, HCMV UL50-53 inh -94 and Sa growth 42C second temp 84.
CC1CCN(C(=O)CCC(=O)c2ccc3c(c2)OCCCO3)CC1 was read as Sa growth 42C 96, HCMV UL50-53 inh -35 and Sa growth 42C second temp 95.
`CCc1ccc2nc(N(Cc3cccnc3)C(=O)c3ccc(C#N)cc3)sc2c1` gave GIV-Gai inh 94, Sa growth 42C 115 and Sa growth 42C second temp 98.
Screening Cc1cc(C)cc(N(CC(=O)NCc2ccco2)C(=O)c2snc(C(N)=O)c2N)c1 returned GIV-Gai inh 105, Sa growth 42C 67, HCMV UL50-53 inh 8 and Sa growth 42C second temp 87.
CN(C)S(=O)(=O)c1ccc(=O)n(CC(=O)c2c[nH]c3ccccc23)c1 was read as Sa growth 42C 83, HCMV UL50-53 inh -26 and Sa growth 42C second temp 97.
For CN(CC(=O)N1CCOCC1)c1ncnc2scc(-c3ccc(F)cc3)c12 the results were Sa growth 42C 97, HCMV UL50-53 inh -5 and Sa growth 42C second temp 100.
For O=C1O[C@@H]2C[C@H]3C[C@@H]2[C@@H]1[C@H]3C(=O)N1CCCc2ccccc21 the results were GIV-Gai inh 99, Sa growth 42C 100 and Sa growth 42C second temp 88.
Screening Cc1c(NC(=O)C(C)(C)Oc2ccc(Cl)cc2)cccc1-c1nc2ncccc2o1 returned GIV-Gai inh 96, Sa growth 42C 88, HCMV UL50-53 inh 21 and Sa growth 42C second temp 87.
`CSc1cccc(NC(C)C(=O)NCc2ccccc2)c1` (stereo unspecified) gave Sa growth 42C 146, HCMV UL50-53 inh -3 and Sa growth 42C second temp 104.
`O=C(CSCC(=O)Nc1ccccc1F)Nc1ccc2ccccc2c1` gave Sa growth 42C 133, HCMV UL50-53 inh -6 and Sa growth 42C second temp 90.
Screening Cc1ccc(CCNC(=O)c2ccc(Cn3c(=O)c4cccn4c4cccnc43)cc2)cc1 returned GIV-Gai inh 107, Sa growth 42C 124 and Sa growth 42C second temp 74.
Screening CCOc1ccccc1Nc1nc2c(S(=O)(=O)c3ccc(C)cc3)nnn2c2ccsc12 returned GIV-Gai inh 103, Sa growth 42C 112 and Sa growth 42C second temp 85.
For COC(=O)C1CN(Cc2ccccc2)CCC1=O (stereo unspecified) the results were GIV-Gai inh 102, Sa growth 42C 106, HCMV UL50-53 inh -6 and Sa growth 42C second temp 91.
CCOC(=O)c1c(C)[nH]c(C)c1S(=O)(=O)N(C)CC(=O)N1CCN(c2ccccc2OC)CC1 was read as GIV-Gai inh 109, Sa growth 42C 100 and Sa growth 42C second temp 96.
Cn1c(C(=O)Nc2cnc3ccccc3c2)cc2c(=O)n(C)c3ccccc3c21 was read as GIV-Gai inh 104, Sa growth 42C 98 and Sa growth 42C second temp 86.
For COc1ccc2cc(CNc3ccccc3)c(=O)n(CC(=O)NCCc3ccccc3)c2c1 the results were GIV-Gai inh 113 and HCMV UL50-53 inh 0.
`Cc1cc(C)c(C#N)c(SC(C(=O)Nc2c(F)cccc2F)c2ccccc2)n1` (stereo unspecified) gave GIV-Gai inh 96, Sa growth 42C 107, HCMV UL50-53 inh -7 and Sa growth 42C second temp 80.
For O=C(CSc1ccc2nnc(-c3cccnc3)n2n1)c1ccccc1 the results were GIV-Gai inh 105, Sa growth 42C 92, HCMV UL50-53 inh -20 and Sa growth 42C second temp 75.
`Clc1ccc(Sc2cccc(Cl)c2Cn2cccc2)cc1` gave GIV-Gai inh 101, Sa growth 42C 93, HCMV UL50-53 inh 0 and Sa growth 42C second temp 95.
CCOc1ccc(CNC(=O)CCn2c(=O)c3cccn3c3ccc(F)cc32)cc1 was read as GIV-Gai inh 94, Sa growth 42C 144, HCMV UL50-53 inh -7 and Sa growth 42C second temp 70.
Screening CCOC(=O)c1c(-c2ccc(C)o2)csc1NC(=O)COC(=O)C12CC3CC(CC(O)(C3)C1)C2 returned Sa growth 42C 80, HCMV UL50-53 inh -26 and Sa growth 42C second temp 87.
CC(C)NC(=O)N1CCN(S(=O)(=O)c2ccc3c(ccn3C)c2)CC1 was read as GIV-Gai inh 102, Sa growth 42C 80 and Sa growth 42C second temp 90.

Six entries drawn at random from the list so far:
Screening CCOC(=O)c1c(-c2ccc(C)o2)csc1NC(=O)COC(=O)C12CC3CC(CC(O)(C3)C1)C2 returned Sa growth 42C 80, HCMV UL50-53 inh -26 and Sa growth 42C second temp 87.
`Cc1cc(C)c(C#N)c(SC(C(=O)Nc2c(F)cccc2F)c2ccccc2)n1` (stereo unspecified) gave GIV-Gai inh 96, Sa growth 42C 107, HCMV UL50-53 inh -7 and Sa growth 42C second temp 80.
CCOC(=O)c1c(C)[nH]c(C)c1S(=O)(=O)N(C)CC(=O)N1CCN(c2ccccc2OC)CC1 was read as GIV-Gai inh 109, Sa growth 42C 100 and Sa growth 42C second temp 96.
CCOc1ccc(CNC(=O)CCn2c(=O)c3cccn3c3ccc(F)cc32)cc1 was read as GIV-Gai inh 94, Sa growth 42C 144, HCMV UL50-53 inh -7 and Sa growth 42C second temp 70.
Cn1c(C(=O)Nc2cnc3ccccc3c2)cc2c(=O)n(C)c3ccccc3c21 was read as GIV-Gai inh 104, Sa growth 42C 98 and Sa growth 42C second temp 86.
CC(C)NC(=O)N1CCN(S(=O)(=O)c2ccc3c(ccn3C)c2)CC1 was read as GIV-Gai inh 102, Sa growth 42C 80 and Sa growth 42C second temp 90.

(more compounds)
Screening COC(=O)c1nn(-c2ccc(OC)cc2)c(=O)c2c(N)sc(C)c12 returned GIV-Gai inh 106, Sa growth 42C 86, HCMV UL50-53 inh -113 and Sa growth 42C second temp 60.
`CCS(=O)(=O)N1CCCC(C(=O)NCCOC)C1` (stereo unspecified) gave GIV-Gai inh 99, Sa growth 42C 109 and Sa growth 42C second temp 88.
Screening O=C(CCc1nc(-c2ccccc2F)no1)NCCN1CCc2ccccc2C1 returned GIV-Gai inh 102, Sa growth 42C 93, HCMV UL50-53 inh -2 and Sa growth 42C second temp 81.
For CCOc1ccc(-c2nnc(SCC(=O)NCCc3ccc(OC)c(OC)c3)nc2-c2ccc(OCC)cc2)cc1 the results were GIV-Gai inh 100, Sa growth 42C 108 and Sa growth 42C second temp 86.
`CC1CN(C(=O)c2cccc(S(=O)(=O)N3CCOCC3)c2)C(=NC2CCCCC2)S1` (stereo unspecified) gave Sa growth 42C 84, HCMV UL50-53 inh -10 and Sa growth 42C second temp 89.
For O=C(Nc1ccc(S(=O)(=O)NCc2ccco2)cc1)c1ncoc1-c1ccc(Cl)cc1 the results were GIV-Gai inh 97, Sa growth 42C 105, HCMV UL50-53 inh -2 and Sa growth 42C second temp 80.
Screening NNC(=O)CCCc1nc2ccccc2s1 returned GIV-Gai inh 103, Sa growth 42C 93, HCMV UL50-53 inh -31 and Sa growth 42C second temp 79.
Screening COc1ccccc1C(=O)CSc1ccccc1Cl returned Sa growth 42C 97, HCMV UL50-53 inh 4 and Sa growth 42C second temp 94.
`CC(C)c1ccc(NC(=O)C2CCN(S(=O)(=O)c3cccnc3)CC2)cc1` gave GIV-Gai inh 100 and HCMV UL50-53 inh -36.
Screening N#CC1(NC(Cc2ccccc2)c2ccccc2)CCCCCC1 (stereo unspecified) returned GIV-Gai inh 105, Sa growth 42C 98, HCMV UL50-53 inh 10 and Sa growth 42C second temp 102.
`O=C(Nc1ccc2nn(-c3ccccc3)nc2c1)c1cccnc1` gave GIV-Gai inh 103, Sa growth 42C 112, HCMV UL50-53 inh -16 and Sa growth 42C second temp 87.
Screening CC(=NCc1ccc2c(c1)OCO2)C1=C(O)c2ccccc2C1=O returned GIV-Gai inh 99, Sa growth 42C 95 and Sa growth 42C second temp 97.
CCN1CCCC1CNC(=O)c1ccc(Cn2c(SCc3ccc(F)cc3)nc3cccnc32)cc1 (stereo unspecified) was read as GIV-Gai inh 106 and HCMV UL50-53 inh -27.
`CN(C)c1ccc(C(CNC(=O)C2CC2)N(C)C)cc1` (stereo unspecified) gave GIV-Gai inh 104 and HCMV UL50-53 inh -18.
For COc1cccc(NC(=O)CCS(=O)(=O)c2ccc3c(c2)NC(=O)CS3)c1 the results were GIV-Gai inh 117 and HCMV UL50-53 inh -8.
COc1cccc2sc(NC(=O)c3ccc4c(c3)OCCO4)nc12 was read as GIV-Gai inh 104&100, Sa growth 42C 109 and Sa growth 42C second temp 95.
Screening Cc1ccn2c(=O)cc(CSc3nnc(NC(=O)c4ccccc4Cl)s3)nc2c1 returned GIV-Gai inh 102, Sa growth 42C 107 and Sa growth 42C second temp 89.
`Cc1csc(NC(=O)C2CCC(C)(C(=O)O)C2(C)C)n1` (stereo unspecified) gave GIV-Gai inh 105, Sa growth 42C 97, HCMV UL50-53 inh 3 and Sa growth 42C second temp 86.
For CN(C)/N=C/C=C1\CCC(C(=O)Nc2ccccc2)=C1N1CCOCC1 the results were Sa growth 42C 89, HCMV UL50-53 inh -52 and Sa growth 42C second temp 88.
`Cc1cccc(-c2nc(CNC(=O)c3ccco3)cs2)c1` gave GIV-Gai inh 100, Sa growth 42C 110, HCMV UL50-53 inh -34 and Sa growth 42C second temp 100.
Screening Cc1ccccc1/C=C1/Sc2ccccc2C1=O returned GIV-Gai inh 95, Sa growth 42C 109, HCMV UL50-53 inh 42 and Sa growth 42C second temp 87.
For Cc1sc2ncnc(Sc3nnc(CN4CCCC4=O)o3)c2c1C the results were Sa growth 42C 82, HCMV UL50-53 inh -12 and Sa growth 42C second temp 92.
For O=C(CN1CCN(c2nc3ccccc3s2)CC1)Nc1ccc2c(c1)OCO2 the results were GIV-Gai inh 100, Sa growth 42C 82, HCMV UL50-53 inh 3 and Sa growth 42C second temp 87.
O=C(NCCC1=CCCCC1)C1CCN(c2nc3ccccc3[nH]2)CC1 was read as GIV-Gai inh 105, Sa growth 42C 96, HCMV UL50-53 inh 1 and Sa growth 42C second temp 84.
Screening COC(=O)c1cccc(Nc2nn3c(=O)c4cc5c(cc4nc3s2)OCO5)c1 returned GIV-Gai inh 96, Sa growth 42C 93, HCMV UL50-53 inh -26 and Sa growth 42C second temp 90.
